Ecoli rRNA inh: reduced GFP signal of wild-type E. coli, primary screen, bacterial rRNA inhibitor project, GFP/RFP fluorescence, OD600, single point | 1.6% of 350,000 active | E. coli WT GFP vs humanized-ribosome RFP mutants, 24 h; active compounds read low; DMSO median 0, no signal -100 | GFP signal change (wild-type ribosome), % (test concentration not listed);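 active = significant combined selectivity score with lowered wild-type GFP, culture density cut under 30%, mutant RFP and density less affected; inactive = any of these conditions unmet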; also: one replicate is shown; some compounds called inactive have numbers as strong as hits
FGF22 binding: binders of human FGF22 protein, primary screen, FGF22 synaptogenesis inhibitor project, biophysical, thermal shift, single point | Fibroblast growth factor 22 (Homo sapiens), Q9HCT0 | recombinant FGF22 thermal shift, SYPRO orange fluorescence; percent of sucrose octasulfate shift, DMSO zero | calls only at 9.99 µM | 1.5% of 340,000 active | AID 651658, 2012;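 active = melting point raised past a set limit in the mean and every replicate; three in four hits are not shown here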
Target sequence (Q9HCT0 whole entry, looked up): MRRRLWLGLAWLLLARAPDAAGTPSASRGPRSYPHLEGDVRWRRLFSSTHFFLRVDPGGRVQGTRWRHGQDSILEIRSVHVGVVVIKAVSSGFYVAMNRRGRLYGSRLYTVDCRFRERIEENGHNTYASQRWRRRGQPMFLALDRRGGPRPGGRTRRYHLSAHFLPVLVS
UCH37 DUB inh: inhibitors of human UCH37 deubiquitinase, primary screen, biochemical, Ub-AMC cleavage, fluorescence. inhibition, % (test concentration not listed). 0.33% of 330,000 active. purified proteasome/UCH37. Ubiquitin carboxyl-terminal hydrolase isozyme L5 (Homo sapiens), Q9Y5K5;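 active = mean of two replicates above 20%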;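 also: 0% = compound-free wells with enzyme and 100% = wells lacking proteasome; stock transfer was 100 nL into about 20 µL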
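System: Proteasome-associated human UCH37 deubiquitinase; Input: 0.15 nM proteasome in added enzyme buffer; Also added: Ub-AMC substrate from 1 µM stock; Incubation: 30 min compound-proteasome preincubation then 25 min substrate reaction, room temperature; Detection: fluorescence, ex 355 nm, em 460 nm; Read-out: % inhibition of Ub-AMC cleavage fluorescence; Benchmarks: no-proteasome and no-compound wells.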
Ecoli growth: E. coli growth inhibition, primary screen, OD600. Escherichia coli growth, 23 h; active compounds read low. OD600 absorbance (test concentration not listed). 0.21% of 330,000 active. AID 1053175, 2014;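 active = OD600 absorbance below the run mean of sample wells minus 3.6 SD, in any replicate, cut at about 0.56 in these data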;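 also: stock transfer was 300 nL into about 60 µL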
B2AR ag: beta2AR agonists driving receptor internalization, primary screen, cell-based, FAP fluorogen, flow cytometry; AID 504454, 2011; Beta-2 adrenergic receptor (Homo sapiens), P07550; Am2.2-beta2AR cells; reference of the scale not given here; response, % (no concentration beside the values); 0.43% of 340,000 active;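 active = response above a set limit, near 3 SD of response in nonfluorescent compounds, cut at about 42% in these data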;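 also: stock transfer was 100 nL into about 11 µL; a reference agonist was the positive control; negative values mostly stem from fluorescent compounds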
Target sequence (P07550 whole entry, looked up): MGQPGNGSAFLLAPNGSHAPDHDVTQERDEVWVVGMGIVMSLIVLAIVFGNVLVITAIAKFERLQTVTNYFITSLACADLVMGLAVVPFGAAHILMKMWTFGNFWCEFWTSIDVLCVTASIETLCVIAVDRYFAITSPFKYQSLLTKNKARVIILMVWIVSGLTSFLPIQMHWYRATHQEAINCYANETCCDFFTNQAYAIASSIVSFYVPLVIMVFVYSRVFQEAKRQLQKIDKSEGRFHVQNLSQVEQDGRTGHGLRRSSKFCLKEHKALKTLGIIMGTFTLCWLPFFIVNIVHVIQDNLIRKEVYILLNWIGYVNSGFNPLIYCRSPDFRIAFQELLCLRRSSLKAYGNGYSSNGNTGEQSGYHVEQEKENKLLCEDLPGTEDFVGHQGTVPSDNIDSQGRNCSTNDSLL
HNF4A DNA FP: change in binding of human HNF4A to DNA, primary screen, biochemical, fluorescence polarization, FITC-DNA; Hepatocyte nuclear factor 4-alpha (Homo sapiens), P41235; 1 h; activity change, % at 10 µM; 0.3% of 360,000 active; AID 1224865, 2016; in the data active = activity change above about 30%, passing the limit was not always enough;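 also: controls were the assay level and a saturating level of protein; the project sought stronger binding though the title names inhibitors; some compounds called inactive have numbers as strong as hits; positive values seem to mean higher polarization but the record does not say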
Target sequence (P41235 whole entry, looked up): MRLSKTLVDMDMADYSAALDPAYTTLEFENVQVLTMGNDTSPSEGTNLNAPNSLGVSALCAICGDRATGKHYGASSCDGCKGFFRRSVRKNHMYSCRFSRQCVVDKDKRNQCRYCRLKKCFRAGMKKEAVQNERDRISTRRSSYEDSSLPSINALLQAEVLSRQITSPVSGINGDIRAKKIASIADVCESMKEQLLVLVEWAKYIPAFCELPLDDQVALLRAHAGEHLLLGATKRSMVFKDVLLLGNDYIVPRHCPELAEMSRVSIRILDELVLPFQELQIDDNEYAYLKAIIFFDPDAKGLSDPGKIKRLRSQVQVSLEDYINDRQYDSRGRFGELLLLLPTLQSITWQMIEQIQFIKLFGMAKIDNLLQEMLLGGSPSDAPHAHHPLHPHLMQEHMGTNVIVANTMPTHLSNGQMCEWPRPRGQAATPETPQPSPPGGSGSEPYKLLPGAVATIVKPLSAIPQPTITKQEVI
ALR inh: inhibitors of human ALR sulfhydryl oxidase, primary screen, biochemical, H2O2 detection, HRP-luminol luminescence, single point. 3.8% of 290,000 active. FAD-linked sulfhydryl oxidase ALR (Homo sapiens), P55789. inhibition, % (no concentration beside the values). purified ALR, DTT oxidation;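 active = mean and each replicate at 75% or more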;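 also: stock transfer was 7.5 nL into about 7.5 µL; 0% = neutral wells and 100% = wells with inactivated enzyme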
Ecoli rRNA inh OD600: second read-out of Ecoli rRNA inh, no call of its own (marks repeat the call); OD600 change, %; measured here: OD600 growth;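 optical density of the mix in the first replicate; 0 = DMSO median and -100 = no signal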
Ecoli rRNA inh RFP: second read-out of Ecoli rRNA inh, no call of its own (marks repeat the call); RFP signal change, %; measured here: RFP humanized mutant strains;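 first replicate; 0 = DMSO median and -100 = no signal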
The depositor's hits bear a star; i = inactive; . = no result given. Not all compounds are listed; the hit share may differ from the screen's.

Values in the order: Ecoli rRNA inh	Ecoli rRNA inh OD600	Ecoli rRNA inh RFP	FGF22 binding	UCH37 DUB inh	Ecoli growth	B2AR ag	HNF4A DNA FP	ALR inh
> O=C(CNC(=O)c1ccc(Br)cc1)NCC(=O)OCc1ccc(Cl)cc1
  7.9	12.4	5.2	i	.	.	4.7	1.7	2.4
> COc1cc2nc(C3CCC3)nc(N3CCN(c4ccccc4OC)CC3)c2cc1OC
  -37.5	-71.0	-22.6	i	-1.4	0.701	2.1	-1.6	5.6
> O=C(COC(=O)/C=C/c1cccc(F)c1)Nc1ccccc1
  6.0	16.8	0.6	i	1.5	.	6.6	-2.0	5.6
> CN(C)S(=O)(=O)n1cnc([C@H]2c3c(ncn3Cc3ccccc3)C[C@H]3COC(=O)[C@@H]32)c1
  7.9	11.7	-0.5	i	-0.7	.	0.4	1.6	-14.6
> Cc1ccc(N(O)C(=O)NCCCCNC(=O)N(O)c2ccc(C)cc2)cc1
  4.6	20.9	-1.3	i	1.7	0.681	-5.8	-1.8	5.3
> CC(C)N1CCCC(C)(C(=O)Nc2ccccc2)C1 (stereo unspecified)
  20.6	14.5	1.0	i	.	.	.	3.5	.
> COc1ccc(Br)cc1C(=O)Nc1cc(C)cc(C)c1
  .	.	.	.	3.5	0.789	-10.0	1.0	-1.8
> Cc1ccc(C)c(N2CCN(c3ccc(N4C(=O)COCC4=O)cc3[N+](=O)[O-])CC2)c1
  .	.	.	.	5.2	0.672	-4.7	0.7	-8.0
> O=C(COc1ccccc1Cl)Nc1ccc2c(c1)OCO2
  -10.1	-7.1	1.7	i	1.4	0.671	2.0	5.4	-1.6
> c1ccc2[nH]c(CSc3nnc(-c4ccncc4)o3)nc2c1
  .	.	.	.	1.9	0.725	3.6	0.3	18.7
> O=C1Nc2ccccc2C1c1ncc(C(F)(F)F)cc1Cl (stereo unspecified)
  12.9	8.7	2.7	i	-0.6	0.689	-14.6	1.8	.
> COC(=O)c1ccc(NC(=O)CCn2c(=O)oc3ccccc32)cc1
  .	.	.	.	0.3	0.706	-6.7	0.1	-1.1
> CC(NC(=O)C12CC3CC(CC(C3)C1)C2)C(=O)NCCN(C)C (stereo unspecified)
  .	.	.	.	3.7	0.765	0.3	0.5	-4.7
> CCn1cc(/C=N\NC(=O)COc2cccc(C)c2C)c(C)n1
  .	.	.	.	.	.	13.8	2.4	0.5
> C=CCNc1nc(-c2c(C)nc3sccn23)cs1
  .	.	.	.	0.3	0.667	0.5	-0.9	56.0
> Cc1ccc(C23CC4CC(CC(NC(=O)NC(C)(C)CO)(C4)C2)C3)cc1
  .	.	.	.	2.6	0.692	14.5	5.8	-0.3
> Cn1cccc1C(=O)NC(=O)CSc1cccc[n+]1[O-]
  .	.	.	.	1.3	0.692	8.3	0.8	-8.4
> CS(=O)(=O)N1N=C(c2ccccc2)CC1c1ccc2nccnc2c1 (stereo unspecified)
  .	.	.	.	3.3	0.703	-7.8	7.5	-3.5
> COc1ccc(-c2coc3c(CN4CCOCC4)c(O)ccc3c2=O)cc1
  -0.4	-3.9	-5.8	i	-379.5	0.704	-6.2	1.0	-0.3
> COCCN(Cc1cn(C)nc1-c1ccccc1F)C(C)C
  13.1	8.4	-0.1	i	1.8	0.658	2.9	-6.7	0.1
> CCCn1nc(C(=O)OCC(=O)Nc2ncc(Cl)c(C)c2Cl)c2ccccc2c1=O
  13.4	12.6	6.7	i	5.1	0.691	5.3	-3.5	-5.2
> O=C(CSc1ccccn1)N1CCCC(Nc2ccc(F)c(F)c2)C1 (stereo unspecified)
  -2.1	0.4	-0.8	i	0.3	0.698	-5.9	0.6	65.7
> c1coc(-c2nc3ccccc3s2)c1
  10.5	18.6	6.2	i	-5.6	0.626	-0.3	5.5	.
> CC(=O)Nc1cccc(C(=O)OCC(=O)NNC(=O)c2cccs2)c1
  -0.1	-2.9	-0.7	i	-2.3	0.616	-5.8	-1.5	-20.3
> CCOc1ccc(NC(=O)C(C)C(Cc2ccc(C)cc2)C(=O)O)cc1 (stereo unspecified)
  -4.8	3.2	-0.3	i	1.8	0.693	2.0	-0.1	.
> CCOC(=O)C1=C(C)N=c2sc(=Cc3ccc(OCC(=O)O)cc3)c(=O)n2C1c1ccc(SC)cc1 (stereo unspecified)
  0.9	5.5	9.3	i	.	.	.	6.2	.
> COc1ccc(/C=N/Nc2nc(NCc3ccco3)nc(Nc3ccc(OC)cc3)n2)cc1
  -6.3	5.1	7.9	i	.	.	11.0	-3.1	.
> CCC(CC)C(C(=O)NCc1ccccc1)N(C)Cc1ccc(Cl)c(Cl)c1 (stereo unspecified)
  -2.8	-11.3	-2.7	i	.	.	.	4.9	.
> COc1ccc(C(=O)NCc2csc(-c3cccs3)n2)cc1
  -11.4	-20.6	0.8	i	-4.4	0.627	-0.6	-2.6	-7.5
> Cc1ccc(NC(=O)Cc2ccccc2F)cc1S(=O)(=O)N1CCCCCC1
  -2.2	-36.6	5.5	i	2.7	0.685	-4.2	1.1	-3.0
> NS(=O)(=O)c1cccc(C(=O)NC2CCSc3ccccc32)c1 (stereo unspecified)
  3.3	0.8	0.4	i	3.0	0.703	-4.4	1.9	0.8
> O=C(Nc1ccccc1)N(CCCN1CCOCC1)Cc1ccccc1F
  .	.	.	.	-5.3	0.724	5.4	-2.0	-11.0
> COc1cccc(CN2CCC(CO)(CC3CCCCO3)CC2)c1 (stereo unspecified)
  8.1	7.6	-1.2	i	2.7	0.672	-2.4	-3.2	0.5
> COc1cc(F)ccc1-c1cc(C(=O)Nc2cc(OC)c(OC)c(OC)c2)[nH]n1
  3.7	-1.6	-1.2	i	.	.	.	2.1	.
> O=C(COC(=O)c1ccncc1)Nc1cccc2ccccc12
  2.4	1.5	0.6	i	.	.	-4.0	4.5	-7.9
> Cc1cnc(C(=O)Nc2ccccc2-c2ccc(C)o2)cn1
  .	.	.	.	-6.8	0.73	1.6	0.3	10.5
> CC(C)c1nnc(NC(=O)CCCC(=O)O)s1
  .	.	.	.	1.9	0.666	-3.6	0.4	-4.0
> CC1Cc2ccccc2N1C(=O)CSc1ncc(-c2ccc(F)cc2)n1C (stereo unspecified)
  -25.9	-41.8	4.4	i	3.0	0.718	2.4	-1.3	-6.2
> O=C(O)c1ccc(-c2ccc(/C=N/Nc3ccc([N+](=O)[O-])cc3)o2)cc1
  .	.	.	i	.	.	-349.5	129.2	5.1
> CCCCNCC(=O)Nc1ccc(NC(=O)CNCCCC)cc1
  .	.	.	.	0.3	0.731	1.3	0.6	-7.3
> O=C(/C=C/c1ccccc1)Nc1ccc(Cl)cn1
  5.4	6.5	-1.0	i	1.9	0.715	-7.0	-5.5	.
> CCn1nnc(C(=O)O)c1C(=O)O
  .	.	.	.	1.1	0.707	0.1	-3.1	2.0
> CC(NC(=O)C1CCCN1S(=O)(=O)c1cccc2cccnc12)c1ccccc1 (stereo unspecified)
  6.7	2.2	3.1	i	4.3	0.73	56.1*	1.9	-51.3
> COc1cc(/C=C/C(=O)O)ccc1OCc1cnc(Cl)s1
  1.3	2.4	-0.9	.	4.3	.	-3.2	1.0	-7.6
> CCn1ccnc1C(O)c1cccc2ccccc12 (stereo unspecified)
  -1.8	1.8	0.8	i	-0.9	0.657	-1.5	3.8	-7.8

Exported field by field: entries from further up.
COc1cccc(CN2CCC(CO)(CC3CCCCO3)CC2)c1 (stereo unspecified)
  Ecoli rRNA inh: 8.1; Ecoli rRNA inh OD600: 7.6; Ecoli rRNA inh RFP: -1.2; FGF22 binding: i; UCH37 DUB inh: 2.7; Ecoli growth: 0.672; B2AR ag: -2.4; HNF4A DNA FP: -3.2; ALR inh: 0.5
Cc1cnc(C(=O)Nc2ccccc2-c2ccc(C)o2)cn1
  Ecoli rRNA inh: .; Ecoli rRNA inh OD600: .; Ecoli rRNA inh RFP: .; FGF22 binding: .; UCH37 DUB inh: -6.8; Ecoli growth: 0.73; B2AR ag: 1.6; HNF4A DNA FP: 0.3; ALR inh: 10.5
NS(=O)(=O)c1cccc(C(=O)NC2CCSc3ccccc32)c1 (stereo unspecified)
  Ecoli rRNA inh: 3.3; Ecoli rRNA inh OD600: 0.8; Ecoli rRNA inh RFP: 0.4; FGF22 binding: i; UCH37 DUB inh: 3.0; Ecoli growth: 0.703; B2AR ag: -4.4; HNF4A DNA FP: 1.9; ALR inh: 0.8

Following part:
Values in the order: Ecoli rRNA inh	Ecoli rRNA inh OD600	Ecoli rRNA inh RFP	FGF22 binding	UCH37 DUB inh	Ecoli growth	B2AR ag	HNF4A DNA FP	ALR inh
> Nc1ccccc1C#CC(=O)c1ccccc1
  -22.9*	-3.6*	6.2*	i	.	.	44.3*	-0.4	50.2
> O=C(CNC(=O)c1ccco1)NCC(=O)OCc1ccccc1Cl
  1.6	2.1	-2.1	i	1.5	0.666	-7.3	0.1	0.0
> Cc1ccc(-c2cc(C(=O)N/N=C/c3c(C)nn(C)c3C)c3ccccc3n2)c(C)c1
  .	.	.	.	.	.	-6.5	0.2	-1.0
> CC(=O)Nc1c2c(nn1-c1ccccc1C)CS(=O)(=O)C2
  11.9	19.4	-6.4	i	2.8	0.684	-0.8	1.1	.
> COc1cc(OC)c(NC(=O)[C@@H]2CCC(=O)N2C2OC(=O)c3c2ccc(OC)c3OC)cc1Cl (stereo partly specified)
  11.1	16.5	-0.2	i	1.8	0.731	-2.2	0.8	.
> Cc1ccc(N(C(=O)Cn2nnc3ccccc32)C(C(=O)NC2CCCCC2)c2cn(C)nc2C)cc1 (stereo unspecified)
  10.0	10.2	-2.2	i	4.2	0.699	-0.9	-4.1	-1.5
> Cc1ccc(S(=O)(=O)CCC(=O)OCC(=O)Nc2cccc(S(=O)(=O)N3CCCCC3)c2)cc1
  -10.7	-12.4	7.2	i	.	.	.	1.2	.
> CC(=O)NCCC(=O)Nc1nc(-c2ccccc2Cl)cs1
  -15.3	-23.9	29.6	i	2.1	0.691	-2.3	-0.2	5.8
> Cc1ccsc1C(=O)N1CCCC(CCC(=O)NCc2ccccc2F)C1 (stereo unspecified)
  6.0	-0.6	1.6	i	-0.1	0.685	-1.6	3.7	-2.2
> COCCNC(=O)C1CC(c2ccc(C(F)(F)F)cc2)=NO1 (stereo unspecified)
  9.7	-1.2	-6.2	i	-1.7	0.704	11.1	0.0	-8.5
> COc1ccccc1N(C(=O)c1ccco1)C(C(=O)NC1CCCC1)c1ccncc1 (stereo unspecified)
  8.1	3.7	-0.1	i	-0.5	0.637	-3.0	1.3	.
> CCOc1ccc(S(=O)(=O)NCCC(=O)N2CCN(C(C)=O)CC2)cc1
  7.5	5.2	3.2	i	.	.	.	4.7	.
> CCOC(=O)N1CCN(C(=O)c2ccc(CS(=O)c3ccccc3)o2)CC1 (stereo unspecified)
  -0.6	0.3	-1.7	i	2.5	0.691	-4.7	2.4	-5.1
> COCCNc1nc(SCC(=O)N2CCN(c3ccccc3)CC2)nc2ccccc12
  .	.	.	.	5.3	0.707	1.0	-1.1	.
> CCCCN(C)CCNC(=O)c1cc(-c2cccnc2)nc2ccc(S(=O)(=O)N3CCC(C)CC3)cc12
  0.6	1.0	-3.8	i	5.4	0.681	46.4*	1.9	0.3
> Brc1cccc(Nc2nc(-c3cccnc3)cs2)c1
  -12.6	-29.3	4.2	i	1.3	0.647	-6.5	3.0	3.1

Assay outcomes (PubChem)
